Mtb hypoxia inh – Mtb hypoxia fluorescent reporter inhibition; M. tuberculosis hypoxia-regulated fluorescent reporter, fluorescence; fluorescence inhibition, % (no concentration beside the values); actives 0.1% (n = 300,000); AID 1159583;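 active = 35 to 45% if threefold the growth effect, above 45% if 1.5-fold the growth effect; inactive = the rest, general growth blockers included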;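 note: wells of about 50 µL received 100 nL stock; 0% = vehicle wells and 100% = reference inhibitor wells; whole bacteria with a GFP reporter of the hypoxia response; strong numbers were not always called active; many hits fall short of the cut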
PrP UTR inh – suppresses PrP 5' UTR mRNA reporter expression; cell-based PrP 5' UTR mRNA reporter, plate reader; inhibition, % (no concentration beside the values); actives 0.35% (n = 340,000); AID 488862;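 active = every replicate at 50% or more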;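 note: 0 = median of the neutral control wells; tested in H4 reporter cells; numbers are from one replicate; inactives centre near -14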
BJeLR viability – BJeLR cell viability loss. inhibition, % (test concentration not listed). actives 0.17% (n = 300,000). BJeLR (HRASV12) viability, CellTiter-Glo ATP luminescence, 48 h; reference of the scale not given here. AID 1554;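 active = replicate mean above 50%; inconclusive = above 50% but judged a plate artefact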;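 note: 50 nL library stock added to about 25 µL; numbers are from one replicate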
ugtP null kill – kills S. aureus RN4220 lacking UgtP; S. aureus RN4220 ugtP deletion, OD600 growth, 16 h; some inactives read as strong as hits; growth inhibition, % (no concentration beside the values); AID 1259309; actives 0.54% (n = 330,000);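 active = z-score under -3 and OD600 up to 0.15 on both plates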;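 note: plate controls were untreated wells for no effect and antibiotic for full effect; wells of about 80 µL received 100 nL stock; the first replicate is given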
RN4220 kill – kills Staphylococcus aureus RN4220; S. aureus RN4220 growth, OD600, 16 h; actives 0.33% (n = 330,000); inhibition, % (no concentration beside the values); AID 1259311;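 active = z-score of -3 or lower and OD600 up to 0.18 on both plates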;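 note: plate controls were untreated cells for no effect and reference antibiotic for full effect; stock transfer was 100 nL into about 80 µL; one replicate is shown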
Autofluor counter – compound fluorescence in toxin protease inhibitor counterscreen; compound autofluorescence counterscreen, microsphere flow cytometry; active compounds read high; fluorescence intensity (concentration not given with the values); actives 3.1% (n = 360,000);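 active = at least 3 SD above the mean of all compounds, about 16000 in these data; inconclusive = too few beads counted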;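 note: 100 nL of 1 mM stock went into each well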
Mtb hypoxia inh growth – second read-out of Mtb hypoxia inh, no call of its own (marks repeat the call); growth inhibition, %; measured here: M. tuberculosis growth (absorbance);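 0% = vehicle and 100% = reference antibiotic; read after six days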
* marks the source's active call; other numbers are inactive results; ? = inconclusive; . = no result given.

SMILES	Mtb hypoxia inh	Mtb hypoxia inh growth	PrP UTR inh	BJeLR viability	ugtP null kill	RN4220 kill	Autofluor counter
COc1ccc(S(=O)(=O)N(CC(=O)N/N=C/c2cccs2)c2ccc(C)cc2)cc1OC	.	.	-5	3	.	.	2867
CCCOc1ccc(/C=N/Nc2ccccn2)cc1OC	.	.	-101	0	.	.	4356
COc1ccc(Cl)cc1S(=O)(=O)N1CCC(C(=O)NCC2CCCO2)CC1 (stereo not drawn)	0	-4	-2	-2	-2	-0.5	5972
Cc1cc(N2C(=O)C3CCCN3C2c2ccccc2)no1 (stereo not drawn)	-4	6	-26	-7	4	0.9	8258
CC(C(=O)O)n1cnc2sc3c(c2c1=O)CCCC3 (stereo not drawn)	2	-3	-34	.	1	1.2	4939
CCOC(=O)C1=C(C)Nc2nc(C)nn2C1c1ccc(OCC)c(OC)c1 (stereo not drawn)	.	.	-13	6	-2	1.0	5942
O=C(c1cc(COc2c(F)cccc2F)on1)N1CCC(c2ccccc2Cl)C1 (stereo not drawn)	2	2	-43	-2	7	2.1	2177
CCCCN(C)C(=O)C1CCC(CNS(=O)(=O)c2ccc3c(c2)CC(C)N3C(=O)C2CC2)CC1 (stereo not drawn)	-3	-4	-19	-3	-2	0.5	4867
Cc1c(C=NNC(=O)c2cccnc2)cc(C#N)n1C	13	12	.	.	4	1.1	.
O=C(NCC1CCCO1)c1ccc(COc2ccc(F)cc2)o1 (stereo not drawn)	6	9	-8	-5	7	2.4	7511
S=C(c1ccc(-c2ccccc2)o1)N1CCCCC1	9	11	-72	5	8	36	3784
Cc1ccc(Cn2c(=O)c3c(ncn3C)n(C)c2=O)cc1	2	18	-21	-5	2	-1.2	3990
CN(CC(=O)Nc1ccccc1C(=O)N1CCCC1)S(=O)(=O)c1ccc(Cl)cc1	9	2	-24	9	-2	5.6	24313*
COC(=O)CSc1nc2c(c(=O)n(C)c(=O)n2C)n1CCC(C)C	-9	1	-27	-2	-1	1.8	2319
O=C(Nc1ccc(Cl)cc1)NC1(C(=O)NCCCN2CCOCC2)CCCCC1	.	.	-36	0	-1	1.3	3085

Next part, starting with the last 2 of the part before.
SMILES	Mtb hypoxia inh	Mtb hypoxia inh growth	PrP UTR inh	BJeLR viability	ugtP null kill	RN4220 kill	Autofluor counter
COC(=O)CSc1nc2c(c(=O)n(C)c(=O)n2C)n1CCC(C)C	-9	1	-27	-2	-1	1.8	2319
O=C(Nc1ccc(Cl)cc1)NC1(C(=O)NCCCN2CCOCC2)CCCCC1	.	.	-36	0	-1	1.3	3085
COC(=O)/C=C1\SC(N)=NC1=O	9	5	-29	-5	4	6.4	5943
CCN(C(=O)c1cccs1)c1nnc(-c2ccncc2)s1	.	.	-22	-1	8	-1.1	4419
O=C(O)CCC(=O)NNC(=O)CCCOc1ccc(Cl)cc1Cl	.	.	-11	4	9	-3.1	2390
CCCc1ccc2oc(C(=O)NCc3nnc(C)o3)c(C)c2c1	-5	4	-61	-3	4	3.7	6024
COc1ccc(NC(=O)CN2C(=O)C(C)Oc3ccc(C)cc32)cc1 (stereo not drawn)	11	3	-1	-18	15	2.2	4418
Cc1ccc(C)c(NC(=S)NNC(=O)c2sccc2C)c1	4	11	-29	-7	-4	3.0	10789
CC(=O)c1c(O)c(C)c(-c2ccccc2)n(-c2ccccc2)c1=O	.	.	5	-12	-6	14	4713
O=S(=O)(NCC(c1cccs1)N1CCc2ccccc2C1)c1ccccc1 (stereo not drawn)	3	6	-20	3	32	5.1	5590
COc1cc2[nH]c(Cl)c([N+](=O)[O-])c2cc1OC	26	23	-13	13	18	23	4510
NC(=S)NN=C1CCC2(CCCCC2)CC1	6	6	-21	.	0	6.7	3599
Cc1c(NC(=O)COC(=O)CSc2ccc([N+](=O)[O-])cc2)c(=O)n(-c2ccccc2)n1C	7	2	-16	.	3	-1.5	7195
CC1(c2ccc(Cl)c(Cl)c2)NC(=S)N2C1NC(=S)N2c1ccccc1 (stereo not drawn)	.	.	-4	-6	.	.	2398
CCc1ccc(NC(=O)N2CCC(c3ccccc3)C2)cc1 (stereo not drawn)	15	4	-54	-15	10	4.0	3583
CN(C(=O)c1ccccc1[N+](=O)[O-])c1ccccc1C(=O)NCc1ccccc1	-5	0	-12	-5	-1	-2.4	4899
O=C(NN=Cc1ccc(OCC2COCCO2)cc1)c1ccc(Br)cc1 (stereo not drawn)	4	10	.	.	4	7.6	.
O=C(CN1CCc2ccccc21)Nc1ccc2c(c1)OCO2	.	.	-4	4	-4	9.6	3548
O=S(=O)(NCCNS(=O)(=O)c1cccs1)c1cccs1	.	.	-14	-1	2	1.3	2344
CC1CN(c2nnc(-c3ccccc3)c3ccccc23)CC(C)O1 (stereo not drawn)	-2	-4	-2	4	-7	-8.9	?
N#CC(=NNc1cccc(F)c1)C(=N)N1CCCCCC1	2	6	.	.	3	2.8	.
O=C(Nc1ccccc1)c1ccc(NCCN2C(=O)CCC2=O)c([N+](=O)[O-])c1	3	3	-27	4	7	5.6	3328
CCCCNC(=O)c1cn(CC)c2cc(N3CCN(C(=O)c4ccco4)CC3)c(F)cc2c1=O	4	17	-7	11	39	26	4868
Cc1ccc(S(=O)(=O)/N=C(/Nc2ccc(F)cc2F)c2ccc(F)cc2)cc1	7	2	-20	1	8	2.5	4394
CCCC(=O)c1cc(F)c(N2CCN(CCC#N)CC2)cc1C	10	10	43	-3	9	4.4	3334
CCOc1ccccc1NC(=S)N(CCCN1CCOCC1)Cc1cn(C)c2ccccc12	-1	4	11	-12	6	4.2	7427
CCN(c1ccccc1)S(=O)(=O)c1ccc(C(=O)NCc2ccccn2)cc1	-8	2	-21	.	-5	0.5	4259
O=C(COC(=O)c1ccc(S(=O)(=O)N2CCCCC2)cc1)Nc1ccccc1Cl	-6	2	1	.	2	0.9	5931
O=C(Nc1cccn(Cc2c(F)cccc2Cl)c1=O)NC1CCCCC1	4	2	-34	1	5	-1.7	3641
CC1Sc2ccc(S(=O)(=O)NCCc3ccc(Cl)cc3)cc2NC1=O (stereo not drawn)	2	1	-13	7	7	7.3	5658
CCCCCCn1c(C(C)O)nc2ccccc21 (stereo not drawn)	.	.	3	10	0	-1.0	3778
COc1ccc(C(=O)Nc2ccc3nc(C)sc3c2)cc1OC	13	10	-56	-7	2	-7.0	4314
Cc1ccc(N(C)C(=O)C2CCCN2S(=O)(=O)c2cccc3nsnc23)cc1 (stereo not drawn)	2	1	-13	12	8	3.6	3949
CCOC(=O)CCn1nc(-c2ccccc2)cc1N	.	.	-11	-3	-1	5.2	4579
CCOC(=O)c1cnc(-c2cccc(OC)c2)[nH]c1=O	5	2	-8	4	3	14	10043
C=CCNC(=S)NNC(=O)c1ccc2c(c1)OCO2	-1	-2	-17	5	1	2.7	9426
O=C(O)CCCCCCCCc1cn(CCc2c[nH]c3ccccc23)nn1	.	.	-20	4	.	.	3937
C/C(=N/NC(=O)CNC(=O)c1ccc2c(c1)OCO2)c1ccc2c(c1)CCCC2	.	.	-13	-4	.	.	3426
Cc1ccn2c(CNCCCn3cccn3)c(C(=O)N3CCCCCC3)nc2c1	-1	12	-32	3	1	-0.2	4286
Cc1cc(Cl)c2oc(C(=O)N(C)CCCN3CCOCC3)c(C)c2c1	1	2	-9	2	4	3.5	5623
CC(C)(C)c1cc(C(=O)NNc2cc(C(F)(F)F)ccc2Cl)n(Cc2ccccc2)n1	-5	4	-27	-1	-16	-10	4343
Cc1csc(=Nc2c(C)n(C)n(-c3ccccc3)c2=O)n1-c1ccccc1	0	2	-25	2	8	4.8	4280
COc1ccc(CCn2c(=N)c(C(=O)N3CCN(C)CC3)cc3c(=O)n4ccccc4nc32)cc1	12	1	-17	0	10	7.1	3182
O=C1CCNc2c(Cl)cc(Cl)cc21	4	-9	-31	0	12	-0.8	3828
CCOC(=O)c1c(C)[nH]c(C)c1S(=O)(=O)N(C)CC(=O)Nc1ccccc1	9	7	-8	13	1	1.9	5154
CCS(=O)(=O)Nc1cccc(C2=NN(S(=O)(=O)c3ccccc3)C(c3cccs3)C2)c1 (stereo not drawn)	7	9	-16	-2	7	5.3	22079*
CCC(C(=O)OCC(=O)Nc1ccc2[nH]c(=O)[nH]c2c1)c1ccccc1 (stereo not drawn)	2	0	-12	-7	2	0.8	6041

2 records drawn at random from those above, as already listed:
SMILES	Mtb hypoxia inh	Mtb hypoxia inh growth	PrP UTR inh	BJeLR viability	ugtP null kill	RN4220 kill	Autofluor counter
Cc1cc(Cl)c2oc(C(=O)N(C)CCCN3CCOCC3)c(C)c2c1	1	2	-9	2	4	3.5	5623
Cc1ccn2c(CNCCCn3cccn3)c(C(=O)N3CCCCCC3)nc2c1	-1	12	-32	3	1	-0.2	4286

Returning to the listing with the 2 entries that preceded the break.
SMILES	Mtb hypoxia inh	Mtb hypoxia inh growth	PrP UTR inh	BJeLR viability	ugtP null kill	RN4220 kill	Autofluor counter
CCS(=O)(=O)Nc1cccc(C2=NN(S(=O)(=O)c3ccccc3)C(c3cccs3)C2)c1 (stereo not drawn)	7	9	-16	-2	7	5.3	22079*
CCC(C(=O)OCC(=O)Nc1ccc2[nH]c(=O)[nH]c2c1)c1ccccc1 (stereo not drawn)	2	0	-12	-7	2	0.8	6041
O=C(Cc1cccs1)N1CCC(c2nc3c(nnn3Cc3ccc(F)cc3)c(=O)[nH]2)CC1	10	7	.	-8	15	-0.4	13458
CC(C)(C)Cc1nnc(NC(=O)c2cc(-c3ccccc3)nc3ccccc23)s1	-3	11	-22	33	-18	-1.7	4205
COc1ccc(-c2coc3c(C)c4oc(=O)c(CC(=O)O)c(C)c4cc23)cc1	9	7	-24	21	100*	93*	3692
Cc1cc2ncc(-c3ccc(Cl)cc3)c(N)n2n1	-2	2	-54	1	8	4.5	5565
Cc1cccc(NC(=S)NC(C)C(c2cccs2)N2CCN(C)CC2)c1C (stereo not drawn)	2	-4	-6	0	10	5.7	4275
COc1ccc(-c2cc(C(=O)NCCc3ccc(S(N)(=O)=O)cc3)c3ccccc3n2)cc1	10	-3	-43	4	3	7.0	4348
CCNc1nc(NCC)nc(OCCOC(C)=O)n1	17	-27	4	1	19	21	2211
COc1ccc(NC(=O)COC(C)=O)cc1OC	-7	6	3	3	-4	1.5	4433
Cc1cc(NC(=O)c2ccc(C#N)cc2)n(-c2ccccn2)n1	5	5	8	-2	3	2.8	4009
Cc1cccc(NC(=O)COc2ccc(-c3nn(C)c(=O)c4ccccc34)cc2)c1	13	6	-22	-9	-4	-1.4	4094
CS(=O)(=O)c1ccc(NC(=O)CCN2C(=O)C3CC=CCC3C2=O)cc1 (stereo not drawn)	7	0	-17	2	10	2.8	.
COc1ccc(F)cc1S(=O)(=O)Nc1ccc(C)cc1	.	.	-9	3	8	0.1	4926
COc1ccc(N2CCN(S(=O)(=O)CCNC(=O)C3CCCCC3)CC2)cc1	3	-4	-18	-2	7	3.1	5708
Oc1cccnc1CCc1ccccc1	-2	0	-27	6	6	3.7	4095
CCOC(=O)Nc1cccc(NC(=O)c2cc(OC)cc(OC)c2)c1	5	7	.	0	-8	-2.0	8037
Cc1ccccc1NC(=O)c1sc(NC(=O)C2CC2)nc1C	15	8	-20	-7	5	1.8	2968
CC(C)NC1(C(N)=O)CCN(Cc2ccccc2)CC1	15	20	-11	.	1	3.3	4232
COc1ccc(N2C(=NC(=O)C3CCCCC3)SC3CS(=O)(=O)CC32)c(OC)c1 (stereo not drawn)	-5	12	-7	4	1	2.2	5385
Cc1ccc(C=NNC(=O)CSc2ccccn2)o1	7	1	.	.	4	-0.6	.
O=C(O)COc1ccc(NC(=O)c2ccc(NC(=O)c3ccco3)cc2)cc1	3	8	-36	7	-5	9.1	5048
O=C(CN1CCN(c2cccc(C(F)(F)F)c2)CC1)N(C1CC1)C1CCS(=O)(=O)C1 (stereo not drawn)	-3	9	3	.	5	3.3	4100
COc1cc(N)n(S(=O)(=O)c2ccc(C)cc2)n1	17	5	15	-7	3	3.8	4088
CCCC(=O)N(CCN1CCOCC1)c1nc2c(OC)ccc(C)c2s1	3	0	-5	-4	-2	2.0	5481
CCOC(=O)C1CCN(C2CCN(C(=O)c3oc4c(F)cccc4c3C)CC2)CC1	2	6	-25	-4	6	-0.1	6964
CCC(=O)NC(c1ccc(OC)c(OC)c1)c1cc(Cl)c2cccnc2c1O (stereo not drawn)	2	-3	19	13	8	13	3263
CCC(C)c1ccc(OCc2ccc(C(=O)OC)o2)cc1 (stereo not drawn)	6	2	-108	3	47	5.0	4595

Source: PubChem
